HSD17B inh: HSD17B dehydrogenase inhibition. recombinant HSD17B10, NADH fluorescence kinetic; many of its hits are not listed in these tables. Potency, µM (top dose mostly 57.1 µM), inactives show at the highest dose activity change, negative = inhibition, usual class: inhibitors. 75,000 tested, 7.6% active; active means well fitted inhibition curve with a large enough effect; inconclusive means small, poorly fitted or top-dose-only effect; inactive means no such curve, though single readings can be large or run the other way;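 further: the protocol describes HADH2 (HSD17B10) and not the HSD17B4 of the title; nearly all actives have a fitted effect of over 70% in size; most hits overshoot -100% by far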
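Activity followed as NADH fluorescence increase (ex 360, em 450 nm) every 30 seconds for 4 min, using final 90 uM beta-hydroxybutyryl CoA and 1 mM NAD+. Recombinant His-tagged enzyme, 20 nM, pH 9.0 Tris buffer, 15 min compound preincubation.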
An asterisk follows results filed as active; ? = inconclusive; [ ] = dose if it differs, or a comment. On the % scale 0 is the no-effect control and ±100 the full control effect; potency means the concentration at half of the fitted maximal effect. An excerpt (hit frequency here may not be typical).

SMILES | HSD17B inh
CCOC(=O)c1c(C(=O)OCC)c(C)n(N2C(=O)CSC2=S)c1C | ?
COC(=O)c1cccc(NC(=O)C2C3CCC(C3)C2C(=O)O)c1 (centres undefined) | -6%
C=CCNc1ncnc2c1cnn2-c1ccc(Cl)cc1 | 25µM*
Cc1cnc(C(=O)Nc2ccc(F)c(F)c2)cn1 | 7%
Cn1nccc1C(=O)Nc1ccc(OC(=O)c2ccnn2C)cc1 | 0%
O=C1CSC(=S)N1/N=C\c1ccc(Cl)c([N+](=O)[O-])c1 | -23%[11.4 µM]
Cc1cccc(N2CCN(C(=O)CCn3c(=S)[nH]c4cc5c(cc4c3=O)OCO5)CC2C)c1 (centres undefined) | 5%
O=C(CSc1nnc(CNC(=O)c2ccco2)o1)c1ccccc1 | 13%
O=C(CCSc1ccccc1)Nc1ccc(S(=O)(=O)N2CCOCC2)cc1 | -18%
O=C1c2ccccc2C(=O)N1c1nc(-c2cccs2)cs1 | ?
CCOc1ccc(OCC)c(NC(=O)CSc2nc3c(c(=O)n(C)c(=O)n3C)n2C)c1 | 13%
CCCc1[nH]nc2c1C(c1ccc(OC)c(CSC3=NCCS3)c1)C(C#N)=C(N)O2 (centres undefined) | -18%
Cn1c(=O)c2cc(S(=O)(=O)NC(Cc3ccccc3)C(=O)NCc3ccco3)ccc2n(C)c1=O (centres undefined) | -2%
O=C(NC1CCCC1)C1c2ccccc2C(=O)N1C1CCCCC1 (centres undefined) | -21%
O=C(C1=C(O)C(=O)N(Cc2ccccc2)C1c1ccncc1)c1ccco1 (centres undefined) | 3%
CC(C)CCN(C)C1CCN(C(=O)Nc2c(F)cccc2F)CC1 | 3%
CC(=O)N1CCN(S(=O)(=O)c2ccc(C)cc2)C1C(C)C (centres undefined) | 0%
CCn1c(NCc2ccccn2)nc2c1c(=O)n(C)c(=O)n2C | 4%
O=C(NC1CCCCC1)N(Cc1ccccc1)Cc1ccco1 | 1%
Cc1ccc(N2CCN(CCC(=O)O)CC2)cc1 | -1%[11.4 µM]
CCCCN(CCCC)S(=O)(=O)c1ccc2oc(C(=O)N3CCOCC3)c(C)c2c1 | -1%
O=C(NCC(c1cccs1)N1CCOCC1)c1cc2ccccc2o1 (centres undefined) | 3%
Cn1c(CSc2nc3ccccc3s2)nc2ccccc21 | ?
Nc1nc(N2C(=O)C3CC=CCC3C2=O)nn1-c1ccccc1 (centres undefined) | 1%
COC(=O)CC[C@@H](C)[C@H]1CC[C@H]2[C@H]3CC[C@H]4C[C@@H]5CC[C@@]4(C)C3(O5)[C@@H](Br)[C@@H](Br)[C@@]12C | 1%[11.4 µM]
Cc1ccc(Cn2nnc3c(=O)[nH]c(C4CCCN(C(=O)Nc5ccc(F)cc5)C4)nc32)cc1 (centres undefined) | 4%
C[C@@H](N)C(=O)O | -6%
Cc1ccc(S(=O)(=O)NC(CC(=O)O)c2ccccc2)cc1 (centres undefined) | -5%
O=C(CN(Cc1cccs1)C(=O)CNC(=O)c1ccco1)NC1CCCCC1 | 3%
COC(=O)c1ccc(Cl)c(NC(C)=O)c1 | 2%

The last 4 entries of the section above open the next one:
SMILES | HSD17B inh
C[C@@H](N)C(=O)O | -6%
Cc1ccc(S(=O)(=O)NC(CC(=O)O)c2ccccc2)cc1 (centres undefined) | -5%
O=C(CN(Cc1cccs1)C(=O)CNC(=O)c1ccco1)NC1CCCCC1 | 3%
COC(=O)c1ccc(Cl)c(NC(C)=O)c1 | 2%
COc1cc(NS(=O)(=O)c2ccc(NC(=O)c3ccco3)cc2)nc(OC)n1 | -5%
CCSc1nnc(NC(=O)CSc2nc3c(c(=O)n2CC)SC(C)C3)s1 (centres undefined) | 8%
N#Cc1cnc2sc3ccccc3n2c1=N | -8%
CN1C(=O)C2C=CC1C1C(=O)N(c3ccccc3)C(=O)C21 (centres undefined) | 7%
CCOC(=O)c1[nH]c(CSc2nnc(-c3ccncc3)n2CCOC)c(C(=O)OCC)c1C | 3%
CC1=NOC2(C1)N(C)c1ccccc1C2(C)C (centres undefined) | 8%
O=C(NCc1ccccn1)c1ccc(Cn2cc(Br)cn2)o1 | 9%
Cc1ccc(Cn2nnc3c(=O)n(Cc4ccccc4C)cnc32)cc1 | 5%
Cc1ccccc1-n1nc2c(c1NC(=O)c1c(-c3ccccc3Cl)noc1C)CSC2 | -15%
CCCC(=O)Nc1nnc(Cc2ccccc2)s1 | 12%
Cc1nn(-c2ccccc2)c(C)c1C(=O)OCC(=O)N1CCN(S(=O)(=O)c2ccccc2)CC1 | 12%
COc1ccc(NC(=O)CSc2nnc(Cc3cccn3C)n2CCc2ccccc2)c(OC)c1 | -7%
Cc1ccc(-n2nc(-c3ccco3)cc2C(=O)NCc2cccnc2)cc1 | -30%
CCC(C)(C)n1nnnc1C(c1ccc(OC)c(OC)c1)N1CCN(c2cccc(OC)c2)CC1 (centres undefined) | -1%
O=C(Nc1cccc(Cl)c1N1CCCC1)c1ccc(Br)o1 | -1%

A draw from above in order of SMILES length, rising.
SMILES | HSD17B inh
CCCC(=O)Nc1nnc(Cc2ccccc2)s1 | 12%
O=C(NCc1ccccn1)c1ccc(Cn2cc(Br)cn2)o1 | 9%
Cc1ccc(-n2nc(-c3ccco3)cc2C(=O)NCc2cccnc2)cc1 | -30%
COc1cc(NS(=O)(=O)c2ccc(NC(=O)c3ccco3)cc2)nc(OC)n1 | -5%
CCOC(=O)c1[nH]c(CSc2nnc(-c3ccncc3)n2CCOC)c(C(=O)OCC)c1C | 3%
CCC(C)(C)n1nnnc1C(c1ccc(OC)c(OC)c1)N1CCN(c2cccc(OC)c2)CC1 (centres undefined) | -1%

Other results follow.
SMILES | HSD17B inh
Cc1ccc2oc(=O)c3cc(C(=O)NCc4ccco4)sc3c2c1 | 25µM*
O=C(CSc1nnc(-c2cccs2)n1CC1CCCO1)c1cc2ccccc2o1 (centres undefined) | ?
CCOc1ccc2nc(NC(=O)Nc3cccs3)sc2c1 | -7%
COc1ccc(C(=O)Nn2c(SCC(=O)NCC3CCCO3)nc3ccccc3c2=O)cc1 (centres undefined) | 8%
Cn1nc(-c2ccc(OCC(=O)NCC3CCCO3)cc2)c2ccccc2c1=O (centres undefined) | 5%
COc1ccc(NC(=O)N2CCN(S(C)(=O)=O)CC2)cc1OC | 1%
CN(Cc1cccs1)c1ncnc2sccc12 | 4%
Nc1ccc(Cc2ccc(N)c(C(=O)O)c2)cc1C(=O)O | -6%[11.4 µM]
O=S(=O)(c1ccc(-c2nnc(SCc3nnc(-c4ccccc4)o3)o2)cc1)N1CCCC1 | -8%
Cn1nnnc1SCC(=O)Nc1ccccc1N1CCCCC1 | ?
Cc1c(S(=O)(=O)Nc2cccc(Cl)c2)c(=O)n(C)c(=O)n1C | 6%
COCCSc1nnc(NC(=O)C2CCCCC2)s1 | 6%
Cc1cccc(CS(=O)(=O)Cc2ccc(C(=O)NCC3CCCO3)o2)c1 (centres undefined) | -5%
CSc1nnc2n(-c3ccccc3)c(=O)c3c4c(sc3n12)CCC4 | -5%
CN(C)c1ccc(CN(C(=O)c2ccco2)C2CCS(=O)(=O)C2)cc1 (centres undefined) | 4%

Single values from above:
HSD17B inh with COc1ccc(NC(=O)N2CCN(S(C)(=O)=O)CC2)cc1OC stands at 1%
HSD17B inh with Cn1nc(-c2ccc(OCC(=O)NCC3CCCO3)cc2)c2ccccc2c1=O (centres undefined) stands at 5%

Further entries follow:
SMILES | HSD17B inh
COc1ccc2c(c1OC)C(=O)OC2CC(=O)c1ccc2c(c1)OCO2 (centres undefined) | ?
CCN1CCCC1CNCc1ccc(Cl)cc1Cl (centres undefined) | 9%
O=C(CN1CCN(Cc2ccc(Cl)cc2)C1=O)NCCN1CCCC1 | 2%
CCC1S/C(=C(\C#N)C(=O)NCc2ccco2)N(c2ccc(F)cc2)C1=O (centres undefined) | 2%
CC(=O)NCCNc1ncnc2ccc(-c3ccccc3Cl)cc12 | -7%
CCOC(=O)c1cc2sc(C)cc2n1CC(=O)Nc1cccc(C)c1C | -8%
O=C(NCc1ccccc1)NC1(C(=O)N2CCCC2)CCCCC1 | 14%
N#Cc1c(N)nc(SCc2ccncc2)c(C#N)c1-c1cccs1 | 52%[activator]
COc1ccc(CCNC(=O)CN2CCN(c3cccc(Cl)c3)CC2)cc1OC | -8%
CCN(CC)c1ncnc2sc(C(=O)N3CCN(c4ccc(OC)cc4)CC3)c(C)c12 | 10%
CN1CCN(C(=O)c2ccc(-n3c(=O)c(=O)[nH]c4ccccc43)cc2)CC1 | -15%
COC(=O)c1nc2cc(C)ccn2c1F | ?
CC(=O)N1CCc2cc(S(=O)(=O)NCCC(=O)Nc3cccc(C)c3)ccc21 | 4%
CC(C)N(CCCNC(=O)C1CCN(S(=O)(=O)N2CCOCC2)CC1)Cc1ccccc1 | -1%
CCOc1ccccc1NC(=O)Cn1cnc2c(nnn2-c2cccc(OC)c2)c1=O | 8%
COC(=O)c1ccccc1NC(=O)COC(=O)c1ccc(C)c(NC(=O)c2ccco2)c1 | 32µM*
CCNc1cc(=O)n(C)c(=O)n1C | 8%
Cc1ccc(C(=O)CSc2nnc(COc3cccc(C)c3)o2)cc1 | -8%
COc1ccc2[nH]c(=O)c(-c3noc(-c4ccccc4)n3)cc2c1 | 8%
CC1(C)CC2CC(C)(CN2C(=O)COC(=O)Cn2[nH]c(=O)c3ccccc3c2=O)C1 (centres undefined) | -4%
N#Cc1nc(Cc2ccccc2)oc1N1CCC(C(N)=O)CC1 | 2%
O=C(Nc1ccc2nn(-c3ccccc3)nc2c1)c1ccc2c(c1)OCO2 | 32µM*
CC(C)COc1cc(=O)[nH]c(SCC(C)C)n1 | -4%
CCCC(NS(=O)(=O)c1ccc(OC)cc1)C(=O)O (centres undefined) | 13%
c1ccc2oc(-c3nn4c(Cn5cnc6ccccc65)nnc4s3)cc2c1 | ?
COc1cc(CNC(=O)c2ccc(Cn3nc(C)c(Cl)c3C)o2)cc(OC)c1 | -6%
COc1cc(C)c(S(=O)(=O)NCc2cccs2)cc1C | -4%
S=C(c1ccc(-c2cccc(Cl)c2)o1)N1CCOCC1 | ?
CCOc1ccc(C(=O)c2ccc(OCC)c(N)c2)cc1N | 66%[activator]
COc1ccccc1N1CCN(S(=O)(=O)Cc2ccccc2Cl)CC1 | 0%
COCCn1c(C)cc(C(=O)COC(=O)c2ccc(-n3nc(C)cc3C)cc2)c1C | 2%
COC(=O)[C@@]1(Cc2ccc(OC)cc2)[C@H]2c3cc(C(=O)N(C)C)n(CCc4ccccn4)c3C[C@H]2CN1C(=O)c1ccccc1 | -3%
Cc1ccc(C2c3c(oc4ccc(Cl)cc4c3=O)C(=O)N2CCCN2CCOCC2)o1 (centres undefined) | 19%
CCC1CCCCN1CCNS(=O)(=O)c1ccc2c(c1)CCN2C(C)=O (centres undefined) | 8%
CCN(CC)CCCN1C(=O)C(O)=C(C(=O)c2ccco2)C1c1ccc(C)o1 (centres undefined) | -4%
O=c1oc2ccccc2n1CCCOc1ccccc1 | 5%
CN(C)c1nc(N2CCCCC2)nc(N2CCCCC2)n1 | 1%
Cc1c(C(=O)N2CCOCC2)oc2ccc(S(=O)(=O)N3CCCC3)cc12 | 6%
COc1cc(NC(=O)c2ncn[nH]2)cc(OC)c1OC | -10%
Cc1nnc(SCCn2c(N3CC(C)CC(C)C3)nc3c2c(=O)n(C)c(=O)n3C)s1 (centres undefined) | 8%
Clc1ccccc1Cn1nnc2c(Nc3ccccc3)ncnc21 | ?
COc1cc(NS(=O)(=O)c2ccc(NS(=O)(=O)c3ccccc3)cc2)nc(OC)n1 | 3%
CC1CCN(C(=O)CN(C)S(=O)(=O)c2cccc3nsnc23)CC1 | 4%
COc1ccccc1-n1c(SCC(=O)O)nnc1-c1ccc(S(=O)(=O)N2CCCCC2)cc1 | -3%
O=C(COc1ccccc1)Nc1ccc2c(c1)nc1n2CCSC1 | ?
Cc1ccccc1-n1nnnc1SCC(=O)Nc1ccc(S(=O)(=O)N2CCCC2)cc1 | -2%
CCc1ccc2[nH]c(=O)c(C(c3nnnn3CCOC)N3CCN(c4ccc(F)cc4)CC3)cc2c1 (centres undefined) | ?
Cn1cccc1C(=O)NC(=O)COC(=O)c1ccccc1Sc1ccccc1C#N | 4%
O=C1C(SC(F)(F)C(F)F)=C(C(F)(F)F)OC2C3C=CC(C3)C12 (centres undefined) | -11%
CCOC(=O)COc1ccc(N)cc1CC(NC(C)=O)(C(=O)OCC)C(=O)OCC | -3%
CC(C)Sc1nc2c(cnn2-c2ccc(F)cc2)c(=O)[nH]1 | 1%
Cc1cc(C)cc(-n2nnc(C(=O)NCc3ccc(Cl)cc3)c2N)c1 | -8%
CC(C)CC1(C)NC(=O)N(CC(=O)NC(=O)Nc2ccc3c(c2)OCCO3)C1=O (centres undefined) | 1%
COc1cccc(N2CC(C(=O)NC3CCCCC3)CC2=O)c1 (centres undefined) | -9%
COc1ccccc1-c1nccc(NC2CCNCC2)n1 | 13%
CCCNC(=O)c1cc(-c2ccc(O)cc2)on1 | 0%
CCCC1CC(C)(C(=O)Cn2[nH]c(=O)ccc2=O)OC1=O (centres undefined) | -7%
COc1ccc(OC)c(S(=O)(=O)NCc2cn3cccc(C)c3n2)c1 | 3%

Bioassay records from PubChem BioAssay.
